TRPV1 PAM: potentiators of human vanilloid receptor 1 (TRPV1). AID 540277. TRPV1-expressing cells, Fluo-8 calcium influx, capsaicin EC20 potentiation; host cell line not named in the record; control for the full effect not named in the record. actives 0.02% (n = 320,000). potentiation, % at 8.33 µM; active means potentiation above 80%; inconclusive means 30% to 80%; inactive means below 30%; also: 0% is about no effect
Target sequence (Q8NER1 whole entry, looked up): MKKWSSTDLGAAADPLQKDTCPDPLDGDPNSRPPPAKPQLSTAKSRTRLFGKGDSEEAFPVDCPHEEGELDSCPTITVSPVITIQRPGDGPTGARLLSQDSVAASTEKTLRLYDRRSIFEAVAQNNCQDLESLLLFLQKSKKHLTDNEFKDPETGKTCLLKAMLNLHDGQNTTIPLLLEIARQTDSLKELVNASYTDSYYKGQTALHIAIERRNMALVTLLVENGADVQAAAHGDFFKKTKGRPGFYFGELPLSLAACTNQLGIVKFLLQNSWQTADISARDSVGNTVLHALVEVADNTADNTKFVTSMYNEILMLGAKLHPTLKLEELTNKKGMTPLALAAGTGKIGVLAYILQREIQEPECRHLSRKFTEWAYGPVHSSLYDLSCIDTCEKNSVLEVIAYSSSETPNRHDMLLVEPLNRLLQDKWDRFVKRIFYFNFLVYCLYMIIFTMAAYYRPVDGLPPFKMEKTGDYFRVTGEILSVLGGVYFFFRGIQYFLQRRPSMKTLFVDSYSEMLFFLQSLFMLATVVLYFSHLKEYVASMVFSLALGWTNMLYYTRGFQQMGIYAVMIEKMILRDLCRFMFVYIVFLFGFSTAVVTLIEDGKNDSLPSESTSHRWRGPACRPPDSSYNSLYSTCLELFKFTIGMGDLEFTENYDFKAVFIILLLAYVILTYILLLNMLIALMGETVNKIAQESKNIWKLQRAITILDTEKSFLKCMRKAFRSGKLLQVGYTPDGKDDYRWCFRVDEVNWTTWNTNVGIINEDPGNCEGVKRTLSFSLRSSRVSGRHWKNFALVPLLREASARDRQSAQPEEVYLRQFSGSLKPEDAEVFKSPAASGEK
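Cells expressing TRPV1 were dye-loaded with Fluo-8 and read kinetically: 10 s baseline, 3 min after compound (agonist portion), then 2 min after EC20 capsaicin (allosteric enhancer portion). Calcium-bound dye fluorescence at 480/520 nm.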
CtBP-E1A inh: CtBP/E1A binding inhibition | AlphaScreen GST-E1A/His-CtBP binding, 1536-well; hits give low values; control for the full effect not named in the record | activity change, % (test concentration not listed) | actives 0.49% (n = 340,000); in the data active means activity change below about -65%; inconclusive means about -30% to -65%; inactive means above about -30%; also: % is scaled to controls: 0 for no effect and ±100 for the full control effect; compound concentration not given in the record
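AlphaScreen with 125 nM GST-E1A and 125 nM His-CtBP (5X stocks) in Tris pH 8.0, 300 mM NaCl, BSA, Tween 20, TCEP. Compounds preincubated 2 h at 37 deg C, then glutathione donor/nickel acceptor beads added for 1 h at 37 deg C in dark.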
gsp agonist: gsp mutant agonism | gsp mutant cells, cAMP HTRF, 30 min; control for the full effect not named in the record | Potency, µM (doses to about 76.9 µM), for inactives: at the top dose activation (cAMP increase), most hits filed as activators | actives 0.13% (n = 340,000); active = well fitted activation curve with a large enough effect; inconclusive = small, poorly fitted or top-dose-only effect, or another doubt; inactive = no such curve, though single readings can be large or run the other way; cell line not stated here;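 also: phosphodiesterase inhibitor Ro 20-1724 added with compounds to block cAMP breakdown; potency is read from the fitted curve at half-maximal effect; nearly all actives have a fitted effect of over 60% in size; about a fifth of the inactives were tested at one dose only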
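Cells in DMEM/10% FBS with G418 were pretreated with compounds in DMSO plus […] (300 uM stock) for 30 min at 37C. cAMP was measured by HTRF (cAMP-d2 plus anti-cAMP antibody-K) after 30 min at room temperature.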
Menin-MLL FL inh: inhibitors of human menin-MLL interaction, wild-type MLL peptide; Fluorescence polarization, fluorescein-MLL peptide displacement from menin; FP activity change, % at 61.4 µM; 290,000 tested, under 10 active; AID 1766; inconclusive = falling polarisation curve, or a change in total fluorescence; inactive = total fluorescence flat and polarisation flat or rising; no compound was filed as active; the % refers to the polarisation; negative = inhibition;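 also: % of control where 0% means no effect; inhibitors lower the polarisation; unlabelled MLL peptide was the positive control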
Sfp inh: Sfp phosphopantetheinyl transferase inhibition. actives 3.5% (n = 310,000). Q9F4F7. Biochemical Sfp PPTase activity, qHTS. Potency, µM, for inactives: max response, negative = inhibition, usual class: inhibitors; active = well fitted inhibition curve with a large enough effect; inconclusive = small, poorly fitted or top-dose-only effect, or another doubt; inactive = no such curve, though single readings can be large or run the other way;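 also: the enzyme is Sfp with the accession as filed and its product quenches rhodamine fluorescence; potency is read from the fitted curve at half-maximal effect; 0% = enzyme reaction without inhibitor and -100% = no enzyme wells; top concentration of the series not given in the record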
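Buffer: 50 mM Hepes-Na pH 7.6, 10 mM MgCl2, 0.01% Nonidet P-40, 0.01% BSA. Enzyme 15 nM, pre-exposed to compound 15 min; substrates then added and fluorescence change tracked over 30 min.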
ClpP mod: qHTS Assay for Activators of ClpP; ATP-dependent Clp protease proteolytic subunit (Bacillus subtilis (strain 168)), P80244; purified B. subtilis ClpP, FRET peptide cleavage, 20 min; Potency, µM (doses to about 57.5 µM), without a hit: at the highest dose activity change, negative = active; actives 1.9% (n = 340,000); AID 651965, 2013; active = well fitted falling curve with a large enough effect; inconclusive = small, poorly fitted or top-dose-only effect; inactive = no such curve, though single readings can be large or run the other way; also: potency is read from the fitted curve at half-maximal effect; the source files actives as falling curves though it sought activators and does not explain the sign; nearly all actives have a fitted effect of over 65% in size; many hits overshoot -100%
Target sequence (P80244 whole entry, looked up): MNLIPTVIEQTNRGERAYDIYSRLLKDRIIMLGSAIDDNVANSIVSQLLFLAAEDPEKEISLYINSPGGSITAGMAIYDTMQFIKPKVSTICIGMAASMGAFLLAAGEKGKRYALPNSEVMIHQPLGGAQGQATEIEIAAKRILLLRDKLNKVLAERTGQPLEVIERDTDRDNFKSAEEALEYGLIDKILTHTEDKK
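FRET quenching reversal measured ClpP activation: 10 microg/mL B. subtilis ClpP at pH 8 with the FRET-FV decapeptide, read at 430 nm after 320 nm excitation. The 20-min minus 0-min signal was scaled between DMSO/no-enzyme wells and ADEP (5.8 microM final).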
gsp antagonist: antagonists of gsp mutant (McCune-Albright syndrome). gsp-mutant cells, cAMP HTRF, 30 min; control for the full effect not named in the record. Potency, µM (highest dose often 76.9 µM), without a hit: top-dose activity change, negative = inhibition, usual class: inhibitors. actives 0.4% (n = 340,000). AID 624288; active = falling curve of any shape with a large fitted effect; inconclusive = falling curve, mostly with a smaller effect; inactive = flat or rising curve; cell line not stated here;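 also: intracellular cAMP measured with PDE inhibitor Ro 20-1724 present during compound exposure; potency is read from the fitted curve at half-maximal effect; % is scaled to controls: 0 for no effect and ±100 for the full control effect; nearly all actives have a fitted effect of over 65% in size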
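Measurement of cellular cAMP by homogeneous time-resolved fluorescence following a 30 min compound exposure at 37C. The PDE inhibitor […] was present throughout; the assay buffer was DPBS with 0.05% BSA and 0.005% Tween 20.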
* hit, by the source's call; ? = inconclusive; . = not tested or not shown; & = joins results of further samples; [ ] = remark or other dose.

structure | TRPV1 PAM | CtBP-E1A inh | gsp agonist | Menin-MLL FL inh | Sfp inh | ClpP mod | gsp antagonist
CCOc1ccc(/C(O)=C2/C(=O)C(=O)N(CC3CCCO3)C2c2cccs2)cc1 (centres undefined) | -2 | 1 | ? | 4.5 | 36% | -1.4% | 12%
O=C(Nc1ccc(Cc2ccncc2)cc1)c1ccc(S(=O)(=O)N2CCCC2)cc1 | -4 | 2 | 8% | 0.0 | -10% | . | 50µM*
CC12CCC(=O)C=C1CCC1C2CCC2(C)C(c3csc(N)n3)CCC12 (centres undefined) | . | -1 | -1%[15.4 µM] | . | . | -1.2% | ?
c1ccc(C(c2ccccc2)c2noc(CN3CCC(c4ccncc4)CC3)n2)cc1 | 2 | -11 | ? | 1.0 | 9% | -2.0% | -5%
O=C1CCc2cc(S(=O)(=O)Nc3ccccc3)cc3c2N1CC3 | 9 | 8 | 6%[15.4 µM] | . | . | -0.5% | -3%
CC(C)(C)OC(=O)N1CCC[C@H]1C(=O)Nc1ccc(S(=O)(=O)C(F)F)cc1 | 11 | . | -7% | 9.0 | 5% | -4.0% | 5%
COc1ccccc1C(=O)N/C(=C\c1cn(C)c2ccccc12)C(=O)N1CCCC1 | -7 | -2 | 12% | 3.1 | 13% | -2.3% | -20%
CCOc1ccc(NC(=O)CN(C)C(=O)c2cn(-c3ccc(C)cc3)nc2-c2cccc(OC)c2)cc1OCC | . | -17 | 3% | . | . | -12% | -24%
COc1ccc(NC(=O)c2ccco2)c(NC(=O)Cc2cccs2)c1 | -7 | 11 | -12% | 6.9 | 10% | -0.5% | 10%
CCOc1ccccc1NC(=O)COC(=O)Cc1ccsc1 | 8 | . | 0% | . | . | 1.3% | 14%
Cn1c(=O)c2c(ncn2CC(COCc2ccccc2Cl)OCc2ccccc2Cl)n(C)c1=O (centres undefined) | ? | -3 | -11% | -1.6 | -3% | 0.9% | -6%
COc1ccc(-n2cc(C(=O)c3ccc4ccccc4c3O)cn2)cc1 | 7 | -1 | 16% | 4.1 | -1% | . | 7%
CCOC(=O)c1cnc(-n2nc(C)cc2C)nc1N(CC)CC | ? | -28 | 15% | 2.8 | 9% | 0.5% | -6%
CCN(CC)C(=O)C1CCCN(C(=O)c2cc(COc3cccc(OC)c3)on2)C1 (centres undefined) | -12 | -6 | -35%[inhibitor] | . | 5% | -0.7% | -9%
CCn1c(COc2ccccc2OC)nc2ccccc21 | 11 | . | 21% | -0.3 | -1% | -3.1% | -1%
COc1cc2c(cc1OC)C(c1cc(Br)c(OC)c(OC)c1)CC(=O)N2 (centres undefined) | -7 | . | 1% | -1.7 | 1% | -2.4% | 3%
COc1ccc(/C=N/Nc2nc(N3CCCC3)nc(N3CCCC3)n2)cc1 | -18 | -2 | -5% | 2.7 | -2% | 0.6% | ?
COc1ccc(N2CCN(C3CC(=O)N(Cc4ccccc4)C3=O)CC2)cc1 (centres undefined) | 8 | -2 | 6% | -0.7 | 9% | . | -1%
CNC(=O)c1nn(-c2ccc(Cl)cc2)ccc1=O | -4 | 4 | -2% | 2.9 | 0% | -3.6% | 9%
CC(=O)Nc1ccc(OCc2cccc3ccccc23)cc1 | -5 | 0 | -21% | -10 | -6% | -0.1% | -31%
Cc1nc(-c2ccccc2)cc(N2CCCC2)n1 | 9 | -7 | ? | 0.4 | -1% | -6.2% | -5%
O=[N+]([O-])c1ccc(N/N=C/c2ccc(O)c(O)c2O)c(S(=O)(=O)N2CCOCC2)c1 | 0 | -19 | 15%[15.4 µM] | 4.0 | 7.1µM* | . | ?
Cc1ccc(C(=O)OC(C)C(=O)c2cc(C)c(C)cc2C)o1 (centres undefined) | -3 | 27 | -43%[inhibitor] | . | -2% | -2.0% | -11%
O=C(c1ccc(Br)cc1)c1cc(-c2ccccn2)c(N2CCOCC2)s1 | -7 | 12 | 15% | 8.7 | 18% | -1.2% | ?
CCN(CC(O)c1cccc(O)c1)C(=O)C12CC3CC(CC(C3)C1)C2 (centres undefined) | -2 | . | 9% | 2.3 | 5% | 19% | -2%
COCCCNC(=O)C1CCC(CNS(=O)(=O)c2ccc(OC)cc2)CC1 (centres undefined) | -1 | -2 | 0%[15.4 µM] | -2.9 | 22% | -1.6%&0.4% | 3%
Cc1ccc(C2(C)NC(=O)N(CC(=O)Nc3ccc(Cl)c(S(=O)(=O)N4CCCCC4)c3)C2=O)cc1 (centres undefined) | 7 | -17 | 17% | . | . | -3.0% | -2%
O=C(O)c1cnn(-c2ccccc2)c1-n1cccc1 | 2 | 0 | -40%[inhibitor] | 1.8 | 8% | 1.1% | -5%
Cc1cc(C)c2c(CN3CCC(C)CC3)cc(=O)oc2c1 | 11 | 10 | -25% | 1.3 | 3% | . | -17%
CCCCCn1c(=O)[nH]c2cc(C(=O)NCCCN(C)Cc3ccccc3)ccc2c1=O | -7 | . | -1% | 4.4 | -2% | -22% | 10%

Some of these compounds in order of SMILES length, smallest number first.
structure | TRPV1 PAM | CtBP-E1A inh | gsp agonist | Menin-MLL FL inh | Sfp inh | ClpP mod | gsp antagonist
CCOc1ccccc1NC(=O)COC(=O)Cc1ccsc1 | 8 | . | 0% | . | . | 1.3% | 14%
CC(=O)Nc1ccc(OCc2cccc3ccccc23)cc1 | -5 | 0 | -21% | -10 | -6% | -0.1% | -31%
Cc1cc(C)c2c(CN3CCC(C)CC3)cc(=O)oc2c1 | 11 | 10 | -25% | 1.3 | 3% | . | -17%
Cc1ccc(C(=O)OC(C)C(=O)c2cc(C)c(C)cc2C)o1 (centres undefined) | -3 | 27 | -43%[inhibitor] | . | -2% | -2.0% | -11%
COc1ccc(NC(=O)c2ccco2)c(NC(=O)Cc2cccs2)c1 | -7 | 11 | -12% | 6.9 | 10% | -0.5% | 10%
COc1ccc(-n2cc(C(=O)c3ccc4ccccc4c3O)cn2)cc1 | 7 | -1 | 16% | 4.1 | -1% | . | 7%
COc1ccc(/C=N/Nc2nc(N3CCCC3)nc(N3CCCC3)n2)cc1 | -18 | -2 | -5% | 2.7 | -2% | 0.6% | ?
CC12CCC(=O)C=C1CCC1C2CCC2(C)C(c3csc(N)n3)CCC12 (centres undefined) | . | -1 | -1%[15.4 µM] | . | . | -1.2% | ?
CCN(CC)C(=O)C1CCCN(C(=O)c2cc(COc3cccc(OC)c3)on2)C1 (centres undefined) | -12 | -6 | -35%[inhibitor] | . | 5% | -0.7% | -9%
O=C(Nc1ccc(Cc2ccncc2)cc1)c1ccc(S(=O)(=O)N2CCCC2)cc1 | -4 | 2 | 8% | 0.0 | -10% | . | 50µM*
CCCCCn1c(=O)[nH]c2cc(C(=O)NCCCN(C)Cc3ccccc3)ccc2c1=O | -7 | . | -1% | 4.4 | -2% | -22% | 10%
CC(C)(C)OC(=O)N1CCC[C@H]1C(=O)Nc1ccc(S(=O)(=O)C(F)F)cc1 | 11 | . | -7% | 9.0 | 5% | -4.0% | 5%
O=[N+]([O-])c1ccc(N/N=C/c2ccc(O)c(O)c2O)c(S(=O)(=O)N2CCOCC2)c1 | 0 | -19 | 15%[15.4 µM] | 4.0 | 7.1µM* | . | ?
Cc1ccc(C2(C)NC(=O)N(CC(=O)Nc3ccc(Cl)c(S(=O)(=O)N4CCCCC4)c3)C2=O)cc1 (centres undefined) | 7 | -17 | 17% | . | . | -3.0% | -2%

Additional compounds
structure | TRPV1 PAM | CtBP-E1A inh | gsp agonist | Menin-MLL FL inh | Sfp inh | ClpP mod | gsp antagonist
Cc1ccc(NC(=O)/C(=C/c2ccc([N+](=O)[O-])cc2)NC(=O)c2ccccc2)cc1 | -6 | 4 | 6%[15.4 µM] | 2.8 | 22% | . | 1%
COC(C(=O)NCc1ccccc1C)c1ccccc1 (centres undefined) | 5 | 9 | -3% | -2.1 | 6% | -1.7% | 7%
COc1cccc(-c2c(C(=O)N/N=C/c3sccc3C)nnn2-c2nonc2N)c1 | 3 | -2 | ? | 2.4 | 13% | -1.9% | -19%
Cc1c(O)ccc2c(CC(=O)N[C@@H](Cc3ccccc3)C(=O)O)cc(=O)oc12 | -3 | . | ? | -3.5 | -11% | 4.5% | 10%
CSc1ccccc1NC(=O)CN1CCN(S(=O)(=O)c2ccccc2[N+](=O)[O-])CC1 | 2 | 0 | 0% | . | . | 0.9% | -6%
CCOCCCn1c(SCC(=O)NC2CCCC2)nc2ccccc2c1=O | -10 | -3 | 22% | . | 0% | -3.2% | 0%
CC(O)CNc1cc(N)c([N+](=O)[O-])cc1[N+](=O)[O-] (centres undefined) | -3 | 3 | 2% | 3.1 | 14% | ? | 8%
CN(C)CCOC(=O)C1(c2ccccc2)CCOCC1 | 0&10 | 2&-4 | -6%&0% | 5.0&4.1 | 19%&9% | -1.1%&0.9% | 2%&19%
CC(=O)Nc1ccc(OS(=O)(=O)c2ccc([N+](=O)[O-])cc2)cc1 | 1 | 3 | -13% | -0.8 | 3% | 0.8% | -2%
CCC(CC)c1nnc(NC(=O)C2=NNC(=O)CC2)s1 | -13 | 0 | -8%[15.4 µM] | -5.5 | -25% | . | -11%
N#Cc1ccc(/C=C/C(=O)c2cccnc2)cc1 | -1 | . | 27% | -0.6 | 50µM* | 0.1% | 13%
COc1cc(/C=C2/SC(=O)NC2=O)ccc1Oc1ccc([N+](=O)[O-])cc1[N+](=O)[O-] | 25 | ? | ? | -0.4 | 50µM* | -0.2% | 25µM*
COc1ccc(S(=O)(=O)N2CCOCC2)cc1C(=O)NCC(c1ccccc1)c1ccccc1 | . | 2 | 9% | . | . | 2.1% | -11%
COC(=O)c1cc(Br)c(=O)n(-c2ccc(C(C)=O)cc2)c1 | 0 | . | . | -0.2 | 15% | . | .
Cc1ccc2nc3c(cc(C(=O)NCC4CCCO4)c(=N)n3CCCOC(C)C)c(=O)n2c1 (centres undefined) | 1 | 1 | ? | ? | 16% | 42% | 14%
Cc1ccc(C(=S)NCS(=O)(=O)c2ccc(C)cc2)cc1 | . | 0 | -26% | -1.1 | ? | 0.2% | 1%
